# Calb FLC – affects C. albicans growth with fluconazole; 300,000 tested, 0.57% active; C. albicans CaCi-2 (fluconazole-resistant clinical isolate) + fluconazole, Alamar Blue growth, 48 h; growth inhibition, % (test concentration not listed); AID 1979;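 active means most replicates above 75%; inconclusive means exactly half above 75%; inactive means most below 75%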;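 further: all wells also contain fluconazole at 8 µg/ml as a sub-toxic cotreatment; 0% = median of DMSO wells and 100% = median of geldanamycin control wells; wells of about 8 µL received 7.5 nL stock; the first replicate is given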
# Bfl-1 A1 inh – inhibitors of the anti-apoptotic protein A1, read as caspase activation; caspase activation, % (concentration not given with the values); 330,000 tested, 0.066% active; MEF A1-2A-BIM cells, Caspase-Glo 3/7 luminescence, 3 h; percent of clofoctol response, vehicle zero;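 active means over half of replicate activation scores above 10%, or exactly half above 10 with the replicate mean above 10; inconclusive means replicate mean below 10 yet half the replicates above 10; inactive means over half of replicates below 10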;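 further: wells of about 30 µL received 50 nL stock; many hits fall short of the cut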
# LANA-H2B inh – blocks KSHV LANA binding to histone H2A/H2B; inhibition, % (test concentration not listed); Q9QR71; cell-free LANA-H2A/H2B peptide, fluorescence polarization; 320,000 tested, 0.6% active; in the data active means inhibition mostly above about 10%, no sharp cut-off; inactive means mostly below about 6.7%;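 further: stock transfer was 7.5 nL into about 10 µL; 0% = median of vehicle wells and 100% = median of positive control wells; one replicate is shown; the record names a cut of 25% in any replicate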
# T cruzi repl – T. cruzi replication inhibition | T. cruzi beta-gal in NIH3T3, luminescence, 90 h | inhibition, % (test concentration not listed) | 300,000 tested, 1.4% active;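 active means mean inhibition across valid replicates above about 55%, limit read from the data; inconclusive means mean below that limit but half or more replicates reach it; inactive means mean below it, under half of replicates reach it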;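 further: signal also drops with host cell toxicity which is not excluded here; 0% = plate median of DMSO wells and 100% = zero luminescence signal; higher percent means less beta-gal luminescence so fewer parasites; stock transfer was 50 nL into about 50 µL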
# RanGTP-Impb inh – inhibitors of RanGTP-importin-beta interaction, primary screen, biochemical, FRET, CFP-Ran, YFP-importin-beta, homogeneous; 300,000 tested, 1.1% active; inhibition, % (concentration not given with the values); cell-free CFP-Ran/YFP-importin-beta FRET ratio; AID 2216;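 active means most replicates above 15%; inconclusive means exactly half above 15%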;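 further: 0% = DMSO wells and 100% = Ran loaded with GDP instead of GTP; wells of about 40 µL received 100 nL stock; the first replicate is given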
# UCH37 inh – blocks the human deubiquitinase UCH37; 330,000 tested, 0.33% active; inhibition, % (test concentration not listed); purified proteasome/UCH37, Ub-AMC cleavage fluorescence; Q9Y5K5; AID 588478;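 active means mean of two replicates above 20%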;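 further: 0% = compound-free wells with enzyme and 100% = wells lacking proteasome; stock transfer was 100 nL into about 20 µL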
# Target sequence (Q9Y5K5 whole entry, looked up): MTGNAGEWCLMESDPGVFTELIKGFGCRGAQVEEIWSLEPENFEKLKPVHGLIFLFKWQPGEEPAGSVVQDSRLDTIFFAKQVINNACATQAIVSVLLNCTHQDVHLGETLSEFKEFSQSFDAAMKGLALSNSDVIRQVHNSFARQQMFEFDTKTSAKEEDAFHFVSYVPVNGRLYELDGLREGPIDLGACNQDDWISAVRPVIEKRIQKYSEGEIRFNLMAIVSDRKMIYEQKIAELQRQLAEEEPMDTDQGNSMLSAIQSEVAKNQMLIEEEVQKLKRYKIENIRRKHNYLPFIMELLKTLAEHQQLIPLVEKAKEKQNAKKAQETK
#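 Test system – human UCH37 enzyme supplied as purified proteasome complex · Incubation – 30 min preincubation with enzyme, 25 min cleavage at room temperature · Detection – AMC fluorescence from Ub-AMC cleavage, excitation 355 nm, emission 460 nm · Benchmarks – no-proteasome wells (full inhibition) and compound-free wells (no inhibition)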
# Beta2AR agonist – activates human beta-2 adrenergic receptor causing internalization; Am2.2-beta2AR cells, FAP receptor internalization, flow cytometry; reference of the scale not given here; response, % (no concentration beside the values); 340,000 tested, 0.43% active; P07550;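 active means response above a set limit, near 3 SD of response in nonfluorescent compounds, cut at about 42% in these data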;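 further: stock transfer was 100 nL into about 11 µL; a reference agonist was the positive control; negative values mostly stem from fluorescent compounds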
# Target sequence (P07550 whole entry, looked up): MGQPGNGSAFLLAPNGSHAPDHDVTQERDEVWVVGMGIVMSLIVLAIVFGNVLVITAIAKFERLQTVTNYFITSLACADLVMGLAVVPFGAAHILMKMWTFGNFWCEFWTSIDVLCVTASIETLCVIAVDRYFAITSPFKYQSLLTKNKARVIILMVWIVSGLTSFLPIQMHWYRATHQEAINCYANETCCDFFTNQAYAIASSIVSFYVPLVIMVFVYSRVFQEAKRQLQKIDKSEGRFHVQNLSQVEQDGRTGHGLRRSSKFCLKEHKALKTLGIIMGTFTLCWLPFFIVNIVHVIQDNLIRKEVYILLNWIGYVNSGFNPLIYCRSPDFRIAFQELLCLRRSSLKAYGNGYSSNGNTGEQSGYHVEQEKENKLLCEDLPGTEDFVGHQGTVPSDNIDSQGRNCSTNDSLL
# Beta apoptosis – beta cell apoptosis inhibition. INS-1E cytokine-induced death, ATP luminescence, 48 h; percent of positive-control rescue, neutral wells zero. protection from apoptosis, % (test concentration not listed). 300,000 tested, 0.8% active. AID 435005;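 active means all replicates at 75% or more, or half of them and the mean; inconclusive means half reach 75% but not the mean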;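 further: 0% = cytokine-treated negative control wells and 100% = positive control rescue; higher means more ATP so stronger rescue from cytokine killing; wells of about 40 µL received 100 nL stock; the first replicate is given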
# The depositor's hits bear a star; ? = inconclusive; · = no result given.
SMILES,Calb FLC,Bfl-1 A1 inh,LANA-H2B inh,T cruzi repl,RanGTP-Impb inh,UCH37 inh,Beta2AR agonist,Beta apoptosis
CCOC(=O)NC1C=CS(=O)(=O)C1 (stereo not given),·,0.9,1.7,-14,7.1,-0.3,-1,·
O=C(/C=C/c1ccco1)N/C(=C\c1ccccc1)C(=O)NCCc1nc2ccccc2[nH]1,-5,0.4,-0.8,-8,-6.4,7.8,-8,9
O=C(CSc1ccc(-c2nc3ccccc3[nH]2)cn1)Nc1ccc(S(=O)(=O)N2CCCC2)cc1,-5,-0.2,-5.6,-5,1.4,·,10,10
O=C1C=C(c2ccc(F)cc2OCc2ccccc2)C[C@@H](c2ccc(Cl)cc2)C1,·,-0.5,0.8,·,·,-0.6,-4,111*
O=C(c1cccs1)N1CCN(Cc2ccccc2[N+](=O)[O-])CC1,3,0.0,-4.1,5,1.4,6.4,0,-1
Cc1ccc(-c2nc(CS(=O)CC(=O)N3CCN(c4ncccn4)CC3)c(C)o2)cc1 (stereo not given),-4,0.0,-0.7,-16,3.5,·,-2,-1
CCOC(=O)c1c(C)[nH]c(C)c1C(=O)COC(=O)c1cccs1,·,0.3,1.0,·,·,1.6,-11,-4
O=C(N/N=C/c1ccc(Cl)cc1Cl)c1ccncc1,1,-0.7,-1.2,-4,2.2,·,4,2
Cc1ccccc1NC(=O)CSc1nnc2ccc(-c3ccccn3)nn12,6,0.6,-2.3,0,-0.7,2.5,1,-1
Cc1cc(C)nc(Oc2ccc(Br)cc2Br)n1,-8,-0.3,-0.9,7,0.2,-7.3,-5,0
CCn1nc(C(=O)Nc2ccc(S(=O)(=O)Nc3nccs3)cc2)c2ccccc2c1=O,-8,-0.1,5.9,-15,-0.9,1.5,6,3
Cc1ccnc(NCc2ccc(Cl)cc2)c1,-23,-1.6,-3.5,2,4.0,1.9,0,·
O=C(c1ccc2snnc2c1)N1CCN(c2ccccn2)CC1,-2,1.1,-8.0,-12,-0.6,2.0,-5,-9
CCC1CCCCN1CCCNC(=O)CCNC(=O)Cn1cnc2ccccc2c1=O (stereo not given),3,-0.7,-0.7,1,-0.5,-0.5,3,-10
O=C(CCSc1nnc2ccc3ccccc3n12)Nc1ccc(F)cc1,-3,1.0,4.0,-6,?,-17,-2,1
CCOC(=O)c1c(Nc2ccccc2N)cc(C)nc1C,-1,0.0,2.5,13,·,0.0,0,-7
CC(C)c1ccc(N2C(=O)[C@@H]3Cc4ccccc4CN3C2=O)cc1,-7,0.8,-1.4,15,-1.1,0.3,4,4
N/C(=N\S(=O)(=O)c1ccc(Cl)cc1)N1CCOCC1,-4,0.6,1.5,-8,1.4,2.6,2,·
COc1ccccc1N1CCN(C(=O)CCc2nnc3ccc(N4CCCC4)nn23)CC1,-3,-0.6,-2.7,-3,1.0,6.6,-2,0
CCOC(=O)COc1ccccc1C1Nc2ccccc2C(=O)N1c1cccc(Cl)c1 (stereo not given),1,-1.0,3.3,8,-2.4,-142,8,2
O=C(NCc1ccco1)c1ccccc1,1,0.7,2.2,-15,0.1,0.4,3,0
Cc1ccc(S(=O)(=O)Nc2cccc(C(=O)N3CCOCC3)c2)c(C)c1NS(C)(=O)=O,-4,-0.4,-2.0,0,-1.6,1.8,12,-5
O=C(CNC(=S)N(Cc1ccccc1)Cc1cccs1)NCc1ccc(F)cc1,-5,·,·,-4,0.8,0.7,10,·
O=C(NC1CC1)c1c(O)c2ccccc2[nH]c1=O,7,0.7,1.7,-11,4.1,1.5,-2,-1
COc1cc(/C=C(\C#N)C(=O)Nc2cccc(C(=O)O)c2)ccc1OCc1ccc(Cl)cc1,-1,-0.9,2.3,-11,-2.7,·,10,-3
Cc1cc(=O)n(CCCc2ccccc2)[nH]1,-1,0.1,6.4,-4,-0.9,3.0,2,0
Cc1cccc(NC(=O)NC2(C(=O)NCc3ccco3)CCCCC2)c1,-17,-0.3,-7.1,-2,-0.5,3.1,-10,3
CCN(CC(=O)Nc1cc(Cl)ccc1C)C(=O)Cc1ccsc1,·,0.5,-1.2,·,·,0.6,5,0
CCC(C(=O)NC1CCN(C)CC1)c1ccccc1 (stereo not given),-2,-0.1,2.3,36,-0.2,0.4,-1,-4
CCNS(=O)(=O)c1ccc(NC(=O)Cn2cc([N+](=O)[O-])cn2)cc1,2,0.0,3.6,-1,-3.5,0.0,3,·
Cc1c(Cl)cccc1NC(=O)[C@@H](NC(=O)c1ccccc1Cl)C(C)C,-28,-0.9,-2.5,-6,-1.3,2.7,4,1
C=CCc1ccc(OC(=O)NC2CCCCC2)c(OC)c1,-13,0.0,-0.4,-6,1.2,5.1,6,-3
NC1=NC[C@@H](Cc2ccc(O)cc2)N1CCC12CC3CC(CC(C3)C1)C2,-20,-0.1,-1.5,0,-1.3,0.4,-1,6
C/C(=N/NS(C)(=O)=O)c1ccc2ccccc2c1,3,0.1,1.7,-10,2.0,·,0,-1
COc1ccc(OCCNC(=O)c2ccc(C)cc2)cc1,-1,?,-0.9,-8,-0.2,-0.2,-3,4
CCc1sc(C(=O)Nc2cc(S(=O)(=O)N3CCOCC3)ccc2OC)cc1C,·,2.1,-0.9,·,·,5.3,4,-1
Cc1cnc(C(=O)OCC(=O)N2CCc3ccccc32)cn1,-5,0.2,-1.5,-8,-0.3,-0.9,6,-8
CCOC(=O)c1sc(/N=C/C2=C(O)CC(C)(C)CC2=O)c(C(=O)OCC)c1C,18,-1.5,0.9,14,0.2,·,2,-5
CCCNC(=O)c1c(Cl)cnn1-c1ccc(C)cc1,30,-0.4,-1.5,-28,-2.1,0.9,0,0
COc1ccc(CN2C(=O)c3cccnc3C2=O)cc1S(=O)(=O)NC1CCCCC1C (stereo not given),4,2.1,0.2,8,0.4,3.4,-6,1
CC(=O)OCC[C@H](NS(=O)(=O)OCC(Cl)(Cl)Cl)c1ccccc1,7,0.7,-0.2,-1,2.0,2.4,-11,-1
COc1ccc(NC(=O)CSc2nc3[nH]c(=O)cc(O)c3s2)c(OC)c1,·,1.6,3.1,·,·,7.3,-2,-4
Cc1ccc(OCC(=O)N(Cc2ccc(N(C)C)cc2)C2CCS(=O)(=O)C2)cc1C (stereo not given),8,0.4,-1.0,24,0.4,4.6,3,1
CC(=O)Nc1ccc(NC(=O)C(C)NC(C)c2cccc3ccccc23)cc1 (stereo not given),2,-0.5,-6.7,-5,-0.1,0.6,-4,-6
Cc1ccc2oc(=O)c3cnn(CC(=O)NCCC(C)C)c3c2c1,-3,-0.3,2.8,-1,-2.5,3.8,-8,-6
O=C(NCCCN1CCOCC1)c1ccc(Cl)c(S(=O)(=O)N2CCCCCC2)c1,13,-0.5,3.3,12,1.6,3.2,2,-4
COCCNc1nc(N)c([N+](=O)[O-])c(NC2CCCCC2)n1,17,0.2,-1.3,-13,-0.6,7.6,6,-5
CCS(=O)(=O)Nc1ccc(-c2cc(-c3ccccc3)c3cc(C)ccc3n2)cc1,-2,1.0,-1.2,20,4.1,-4.7,19,5
C=CCN1C(=O)/C(=C\c2ccc(Cl)cc2)N=C1SCC(=O)NC1CCCCC1,11,0.3,0.1,0,2.2,2.0,-9,-8
Cn1c(=O)c2c(nc(Oc3ccc4c(c3)OCO4)n2Cc2ccc(Cl)cc2)n(C)c1=O,3,0.5,4.5,-5,6.3,3.7,-9,7
CC(=O)Nc1nonc1NC(=O)c1ccc(C(C)(C)C)cc1,-14,-0.6,-1.6,5,-0.5,0.9,4,-4
Cc1ccc(C(=O)Nc2scc(-c3ccccc3)c2C(=O)O)o1,-4,-6.3,-5.5,-3,-5.0,2.5,-6,4
Cc1ccc(C(=O)C2CCN(CC(=O)NCc3ccc(F)cc3)CC2)cc1,-13,-0.3,3.5,24,-1.6,·,-4,5
CC(C)n1c(-c2ccc(C(C)(C)C)cc2)n[nH]c1=S,10,-0.2,1.0,-15,-2.6,3.2,1,15
CC1(C)Cc2c(cnn2-c2ccc(F)cc2)C(NC(=O)c2ccco2)C1 (stereo not given),3,-0.4,-5.7,-2,-0.9,1.4,1,-3
CC[C@H](C)[C@H]1O[C@]2(CC[C@@H]1C)C[C@@H]1C[C@@H](CC=C(C)[C@@H](O[C@H]3C[C@H](OC)[C@@H](O[C@H]4C[C@H](OC)[C@@H](O)[C@H](C)O4)[C@H](C)O3)[C@@H](C)C=CC=C3CO[C@@H]4[C@H](O)C(C)=C[C@@H](C(=O)O1)[C@]34O)O2,·,-0.1,3.3,·,·,1.3,32,87*
O=C(NC1CCCCC1)C1c2ccccc2C(=O)N1Cc1ccc2c(c1)OCO2 (stereo not given),7,0.3,1.0,-1,4.0,0.5,-6,4
Cc1cc(C(=O)N[C@H](c2ccccc2)[C@@]2(C)C[C@@H]2[C@@H](C)C(=O)Nc2ccc3ccccc3c2)no1,7,-1.2,1.9,40,-1.1,3.4,3,·
CCOc1ccc(CCNC(=O)COC(=O)/C=C/c2cccc(OC)c2)cc1OCC,6,0.0,6.9,-11,2.3,-6.0,2,-8
C=C1CCN([C@@H](CC(C)C)C(=O)NCc2ccco2)S(=O)(=O)c2ccccc21,-3,-0.2,0.5,7,3.9,2.0,0,-1

# (more compounds)
SMILES,Calb FLC,Bfl-1 A1 inh,LANA-H2B inh,T cruzi repl,RanGTP-Impb inh,UCH37 inh,Beta2AR agonist,Beta apoptosis
COc1cc(CN2CCc3ccccc3C2)ccc1O,-2,33*,-4.9,-26,4.7,·,-4,142*
C(=N\c1nccs1)/Nc1nccs1,·,0.5,2.5,-13,3.2,·,6,-6
Cc1ccc(-c2nc(C3CCCN(S(=O)(=O)c4ccc(C(C)(C)C)cc4)C3)no2)cc1 (stereo not given),-5,0.6,1.7,1,1.5,7.1,-2,-5
COc1cc(CCCN2C(=O)C(=O)NC[C@@H]2c2ccccc2)cc(OC)c1OC,-3,-1.3,1.2,11,-3.1,1.7,-3,-8
O=C(CN1C(=O)COc2ccccc21)NNC(=O)Nc1ccccc1F,-3,0.2,8.1,3,1.6,-2.3,1,-3
O=C(NNC1=NS(=O)(=O)c2ccccc21)c1cccc([N+](=O)[O-])c1,-1,-0.7,3.0,0,-1.5,10,-6,-3
Clc1ccc(Cc2ccccc2)nn1,-16,0.5,-0.2,-15,-1.8,0.2,-12,·
CCCCNC(=O)c1ccccc1NC(=O)CCC,-18,1.0,1.0,2,-0.3,-0.3,1,-8
N#CC1(NC(=O)COc2ccccc2[N+](=O)[O-])CCCCC1,-2,0.9,-2.7,-2,0.3,-1.6,-3,-6
Cc1ccc(C(=O)NCc2ccc(Cl)cc2)cc1S(=O)(=O)N1CCCCC1,·,-0.6,-3.3,·,·,-1.0,0,-3
CCN(C(=O)Cn1c(=O)oc2ccccc21)c1cccc(C(F)(F)F)c1,13,1.8,-1.7,5,-2.4,1.8,5,·
CCOc1ccc(N(C(=O)CNC(=O)c2ccco2)C(C(=O)NC2CCCC2)c2cccnc2)cc1 (stereo not given),8,-0.5,4.5,3,-1.7,1.7,11,-4

# Screening data from PubChem.

# Random draw from the library; overall some 4.3% were active at least once.
